Source: PubChem BioAssay (National Center for Advancing Translational Sciences (NCATS))
HPGD block: HPGD (human) dehydrogenase inhibition; purified HPGD, NADH fluorescence kinetic, PGE2 substrate; Potency, µM, without a hit: at the highest dose activity change, negative = inhibition, usual class: inhibitors; hit rate 4.3% among 150,000; active = well fitted inhibition curve with a large enough effect (not every such curve was filed as active); inconclusive = small, poorly fitted or top-dose-only effect, or another doubt; inactive = no such curve, though single readings can be large or run the other way;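 note: top concentration of the series not given in the record; plate controls included wells without enzyme; inactives centre near -10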
Target sequence (P15428 whole entry, looked up): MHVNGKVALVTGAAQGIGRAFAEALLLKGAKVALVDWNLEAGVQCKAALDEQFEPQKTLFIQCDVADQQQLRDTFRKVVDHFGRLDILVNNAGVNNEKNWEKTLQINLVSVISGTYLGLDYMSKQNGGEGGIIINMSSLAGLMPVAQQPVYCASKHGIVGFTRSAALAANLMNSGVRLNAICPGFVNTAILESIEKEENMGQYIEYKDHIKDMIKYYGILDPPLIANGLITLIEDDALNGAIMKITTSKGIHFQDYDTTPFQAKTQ
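NADH formation kinetics: reaction with 30 uM PGE2 and 1 mM NAD+ (final), 20 nM enzyme, Tris-HCl pH 8 with Tween 20, after 15 min compound preincubation at room temperature. Fluorescence change, last versus first of five reads.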
Active calls of the source: *; ? = inconclusive. % is set by controls: 0 for no effect and ±100 for the full control effect; potency is the fitted concentration of half-maximal effect. Only part of the results is shown; the hit share may differ from the screen's.

Preview (two entries):
SMILES	HPGD block
C=CCNc1nc(-c2sc(NC(C)=O)nc2C)cs1	?
CN(CC(=O)Nc1ccc(F)c(F)c1F)c1cnccn1	-6%

The listing, from the start:
SMILES	HPGD block
C=CCNc1nc(-c2sc(NC(C)=O)nc2C)cs1	?
CN(CC(=O)Nc1ccc(F)c(F)c1F)c1cnccn1	-6%
COCCn1c(SCc2nc3ccccc3c(=O)[nH]2)nnc1-c1ccncc1	-14%
Cc1cccc(OCCn2c(NC(=O)c3ccco3)nc3ccccc32)c1	-18%
O=C(C1CC1)N1CCc2cc(Br)cc(S(=O)(=O)NCCCN3CCCC3)c21	?
COc1ccc(C(=O)Sc2ccc(C)cc2)cc1OC	-8%
CCN1CCN(CCC(=O)Nc2ccccc2OC)CC1	-2%
Cc1nn(-c2ccccc2)c2[nH]c(=O)c(CNc3ccc(N4CCOCC4)cc3)cc12	-10%
C=CCN(CC=C)C(=S)NC(=O)/C=C/c1ccc(OC)cc1	-16%
Cc1ccc(NC(=O)c2cccs2)cc1S(=O)(=O)N(C)C	-9%
O=[N+]([O-])c1ccc(COc2ccc(-c3[nH]ncc3-c3ccccc3)c(O)c2)cc1	-6%
CCOc1ccc(N2C(=O)CC(Sc3nccc(C)n3)C2=O)cc1 (stereo unspecified)	-5%
CC12CNCC(C)(CN(C(c3ccccc3)c3ccccc3)C1)C2	-7%
O=C(Nc1nc(-c2nc3ccccc3s2)cs1)c1ccco1	-20%
COc1ccccc1NC(=O)C1=C(C)NC(=O)NC1c1ccccc1F (stereo unspecified)	-8%
CSc1nc2sc3c(c2c(=O)[nH]1)CCCC3	?
NC(=O)C1CCN(C(=O)CSc2ccccn2)CC1	-6%
N#C/C(=C/c1ccc(-c2ccc(S(N)(=O)=O)cc2)o1)C(=O)Nc1ccccc1	?
CC(C)(C)c1ccc(C(=O)c2c[nH]c(C(=O)NCCCN3CCOCC3)c2)cc1	-6%
Cc1ccccc1Cn1ccc(NC(=O)CCSc2nc(-c3ccco3)cc(C(F)(F)F)n2)n1	-13%
CC(NC(=O)c1ccc(N(C)C)cc1)C1CC2CCC1C2 (stereo unspecified)	?
CCCn1c(C)cs/c1=N\C(=S)Nc1ccccc1	-2%
COCCN1Cc2c(sc(C)c2C)N(C(=O)c2ccccc2)C1	-6%
CCOc1ccccc1NC(=O)c1cccc2c1C(=O)N(CCOC)C2	1%
Cc1cc(=O)[nH]c(=S)n1-c1ccccc1	-1%

4 records drawn at random from those above, as already listed:
SMILES	HPGD block
CC12CNCC(C)(CN(C(c3ccccc3)c3ccccc3)C1)C2	-7%
C=CCN(CC=C)C(=S)NC(=O)/C=C/c1ccc(OC)cc1	-16%
CSc1nc2sc3c(c2c(=O)[nH]1)CCCC3	?
Cc1cc(=O)[nH]c(=S)n1-c1ccccc1	-1%

(listing goes on)
SMILES	HPGD block
COc1ccc(-c2nnc(SCc3nnc(-c4cccs4)o3)n2CC2CCCO2)cc1 (stereo unspecified)	-20%
Cc1cccc(OCC(=O)Nc2ccc(S(=O)(=O)N3CCN(C)CC3)cc2)c1	0%
COc1ccc(OCC(=O)N/N=C2\CCc3ccccc32)cc1	-3%
Cc1ccc(-n2ncc3c(=O)n(CC(=O)N4CCCCCC4)cnc32)cc1	?
Cn1c2ccccc2c2c(C(=O)N3CCN(c4ccc(F)cc4)CC3)cn(C3CCCC3)c(=O)c21	?
CN(C)CCCO/N=C(\c1ccccc1)c1ccncc1	-4%
N=c1c(C(=O)NCc2ccccc2)cc2c(=O)n3ccccc3nc2n1Cc1ccco1	?
Cc1cc(NS(=O)(=O)c2ccc(Nc3nc(-c4sc(C)nc4C)cs3)cc2)no1	?
CC(=O)Nc1ccc(-c2cc(-c3ccccc3)nc(-c3ccccc3)n2)cc1	?
O=C(Nc1ccc2c(c1)OCO2)C1CC(c2ccccc2Cl)=NO1 (stereo unspecified)	-21%
C=CCOC(=O)COc1ccc2c(C)c(C)c(=O)oc2c1	?
CC(Oc1ccccc1)C(=O)N1CCCc2ccccc21 (stereo unspecified)	-17%
CCOC(=O)Cc1nnc(NC(=O)c2ncn[nH]2)s1	1%
Cc1ccc(N2NC(=O)/C(=C\c3cc4c(cc3[N+](=O)[O-])OCO4)C2=O)cc1C	4µM*
CCc1c(O)nc(SCC(N)=O)n(-c2ccccc2F)c1=O	-5%
CCOC(=O)C(C)Sc1nnc(NC(=O)c2cccc([N+](=O)[O-])c2C)s1 (stereo unspecified)	-10%
Cc1c(C)[n+](=O)c2c(n1[O-])CCCCC2	-14%
COc1ccccc1-n1cnc2cc(NC(C)=O)ccc21	-16%
COC(=O)C1=NN(c2ccccc2OC)C2C(=O)N(c3ccccc3OC)C(=O)C12 (stereo unspecified)	-16%
O=C(CNC(=O)/C=C/c1ccccc1)N=Nc1c(O)n(Cc2ccccc2)c2ccccc12	-12%
Cc1ccc(Cl)c(OCC(=O)Nc2ccc3c(c2)OCCO3)c1	-13%
CCc1ccc(C(=O)COC(=O)c2cccs2)cc1	?
Cc1ccc2cc3c(NC(=O)c4ccco4)nn(CC(C)C)c3nc2c1	-27%
CCCCN(C)C(=O)CCCc1c[nH]c2ccccc12	-16%
Cc1nc2scc(-c3cccs3)c2c(=O)o1	-10%
O=C(CC(C(=O)O)C1CCCO1)NCCc1ccc2c(c1)OCO2 (stereo unspecified)	-4%
CCCOC(=O)/C(C)=N\NC(=O)c1ccco1	-6%
CCOc1ccc(C(=O)NCC(=O)OC(C)C(=O)NCc2ccco2)cc1OCC (stereo unspecified)	-10%
COc1ccc(CNC(=O)NC2CCCCC2)cc1	-15%
COc1ccc(C2=NCN(c3ccc(C)cc3)C(=S)N2)cc1	-6%
COc1ccc(NC2C=CS(=O)(=O)C2)cc1 (stereo unspecified)	-8%
Cc1cc(NC(=O)CCC(=O)N(CCc2ccccc2)C(C(=O)NC2CCCC2)c2ccco2)no1 (stereo unspecified)	-6%
Cc1ccccc1NC(=O)C1c2ccccc2Oc2ccccc21	-9%
Oc1[nH]c2ccccc2c1/C=N/N1CCCCC1	-15%
Clc1ccc(Nc2nc3ccccc3n3nnnc23)cc1	?
O=C(Nc1cc(Cl)ccc1Oc1ccccc1)c1ccccc1F	-23%
Cc1cc(C)c(C#N)c(N2CCCC2)n1	?
CCOC(=O)N1CCN(c2ccc(Cl)cc2)CC1	-10%
N=c1sccn1CC(=O)Nc1cccc2ccccc12	2%
CCn1c(SC(C)C(=O)NC2CCCc3ccccc32)nnc1-c1cccs1 (stereo unspecified)	-3%
COc1cc(NC(=O)CSc2nc3ccccc3n2-c2ccccc2)c(C)cc1[N+](=O)[O-]	-25%
COc1ccccc1N1CCN(C(=O)CSc2nc(-c3ccco3)cc(C(F)(F)F)n2)CC1	-26%
COc1cc(C2=NOC(C(=O)N3CCCc4ccccc43)C2)cc(OC)c1OC (stereo unspecified)	-15%
CCCCN(C)C(=O)c1c[nH]c2ccc(S(=O)(=O)N3CCOCC3)cc2c1=O	?
CC(C)(O)/C=C1/Oc2ccccc2C1N1CCCCC1 (stereo unspecified)	-10%
O=C(O)/C(=C1\OC(=O)c2ccccc21)c1ccccc1	-5%
CCc1ccccc1NC(=O)c1cccc(NC(=O)/C=C/c2ccco2)c1	-14%
CCOc1cc(S(=O)(=O)NC2CC2)c(OCC)cc1-n1cnnn1	?
C/C=C/CSc1nc2c(c(=O)[nH]c(=O)n2C)n1CCC	-4%
COc1ccc(C2=NOC(C(=O)N3CCN(c4ccccc4OC)CC3)C2)cc1 (stereo unspecified)	-3%

An excerpt from the list above, for reference:
SMILES	HPGD block
O=C(CC(C(=O)O)C1CCCO1)NCCc1ccc2c(c1)OCO2 (stereo unspecified)	-4%
CCCOC(=O)/C(C)=N\NC(=O)c1ccco1	-6%
CCOc1ccc(C(=O)NCC(=O)OC(C)C(=O)NCc2ccco2)cc1OCC (stereo unspecified)	-10%
COc1ccc(CNC(=O)NC2CCCCC2)cc1	-15%

The list goes on:
SMILES	HPGD block
COc1ccc(-c2cnnc(N/N=C/c3c(C)nn(-c4ccccc4)c3Cl)n2)cc1	?
Cc1ccc(S(=O)(=O)N2CCC(C(=O)OCC(=O)N3CC(=O)Nc4ccccc43)CC2)cc1	-23%
Cc1nc2nc(C)c(CCC(=O)N3CCN(c4ccccn4)CC3)c(C)n2n1	-6%
CCC(CC)C(=O)N1c2ccc(F)cc2CCC1C (stereo unspecified)	-3%
O=C(Nc1nc2ccccc2s1)c1cc(-c2ccco2)nc2ccccc12	?
COc1ccc(OCCCC(=O)NC(C)c2ccccc2)cc1 (stereo unspecified)	-8%
COc1cc(OC)cc(C(=O)Nn2cc(C(=O)N3CCN(C)CC3)c3ccccc3c2=O)c1	0%
Cc1c(Cl)cccc1N(CC(=O)O)S(C)(=O)=O	-2%
Cc1cc(C(=O)NCc2cccs2)n(-c2ccccc2)n1	0%
CC(C)(C)c1nnc2sc(SCC(=O)c3cccs3)nn2c1=O	-9%
Cc1cccc(C)c1C(OCCN(C)C)C1CCCCC1 (stereo unspecified)	0%
Cc1ccc(S(=O)(=O)C2C(=O)N(C)C3(C)CC2c2ccccc2O3)cc1 (stereo unspecified)	-7%
CCCC(=O)Nc1ccc2c(c1)C(=O)NC2=O	?
Cc1ccc(S(=O)(=O)N2CCCCC2)cc1NC(=O)CCOc1ccccc1	-16%
Cc1ccccc1N=C1SC(CC(=O)Nc2ccc3ccccc3c2)C(=O)N1Cc1ccccn1 (stereo unspecified)	-12%
Cc1ccc(C(=O)c2cc([N+](=O)[O-])ccc2N2CCCCC2)cc1C	-13%
CCCc1cc(C(=O)NNC(=S)NCc2ccccc2)cs1	-14%
O=C(O)CC[C@@]1(c2ccccc2)NC(=O)NC1=O	-1%
O=C(O)c1cc(N(Cc2ccccc2O)Cc2cc(O)ccc2O)ccc1O	?
O=C(/C=C/c1c[nH]c2ccccc12)c1cccc2ccccc12	?
CCC(C)(C)NC(=O)CN(Cc1cccs1)C(=O)C(=O)Nc1ccc2c(c1)OCCO2	-16%
C=CCNCCOc1c(C)cc(C)cc1Cl	-2%
Cc1ccc(N2C(=O)CC(C3CCCO3)C2=O)cc1 (stereo unspecified)	-2%
O=C1CC(c2ccc(S(=O)(=O)NCc3ccncc3)cc2)CN1 (stereo unspecified)	-3%
O=C(NCC(c1cccnc1)N1CCN(c2ccccc2F)CC1)C1CCCCC1 (stereo unspecified)	-13%
O=C(NCCS(=O)CCNC(=O)C(F)(F)F)C(F)(F)F	-9%
CCCC(=O)Nc1nnc(CC(=O)N2CCCC2)s1	-8%
Cc1ccc(S(=O)(=O)NC2=NCN(CCc3ccccc3)CN2)cc1	-10%
O=C(O)c1ccccc1-c1ccccc1C(=O)Nc1ccc2c(c1)Cc1cc(F)ccc1-2	-15%
CCCCN(c1ccccc1)c1ncnc2c1cnn2C	-11%
Cc1ccc(S(=O)(=O)Nc2ccccc2C(=O)OC(C)C(=O)Nc2ccc3ccccc3c2)cc1[N+](=O)[O-] (stereo unspecified)	-25%
Cc1ccc(CSCC(=O)N2CCN(Cc3ccc4c(c3)OCO4)CC2)cc1	-7%
CCC(=O)Nc1ccccc1Sc1ncnc2scc(-c3ccccc3)c12	-19%
CC(=O)NC1=NN(C(C)=O)C(c2cccs2)S1 (stereo unspecified)	-11%
Cn1nnc2cc(C(=O)NCCC3=CCCCC3)ccc21	-29%
CCC1=C2CC[C@H]3C(=O)N(CC)C(=O)[C@H]3[C@H]2[C@@]2(C)C(=O)N(CC(=O)OC)C(=O)N2C1=O	-12%
CCc1cccc2c(C#N)cn(CC(=O)NCCOC)c12	-7%
Cc1ccc(C(=O)Nc2nc(=O)n(C(=O)c3ccccc3Cl)s2)cc1	-4%
CC(C)CC(=O)N(c1ccc(F)cc1)C1C=CS(=O)(=O)C1 (stereo unspecified)	-12%
CCOC(=O)C1CCC(CN(Cc2ccccc2C)S(=O)(=O)c2ccc([N+](=O)[O-])cc2)CC1 (stereo unspecified)	-9%
Nc1[nH]nc2nc3ccccc3nc12	-7%
CC(C)CC(=O)Nc1nnn(C)n1	-11%
COc1ccccc1N/C(N)=N/c1nc(CSc2ccc(C)cc2)cc(=O)[nH]1	-9%
O=C(O)CCc1c2ccc(=O)c(O)c-2oc2c(O)c(O)ccc12	2.8µM*
CC(C)(C)c1nc2c(Br)cc(Br)cc2c(=O)o1	-11%
CCOc1ccc(N=Nc2c(=O)[nH]n3c(=O)cc(C)[nH]c23)cc1	40µM*
CCCNC(=O)c1c[nH]c2ccc(S(=O)(=O)N(C)c3ccc(OCC)cc3)cc2c1=O	?
CCCN(CCC)CCCNC(=O)CC1Nc2ccccc2NC1=O (stereo unspecified)	-5%
Cc1cc(F)ccc1S(=O)(=O)Nc1ccccc1C(=O)Nc1ccccc1-c1nc2ccccc2[nH]1	?
CCOc1ccc2[nH]c(=O)c(CN(CCN3CCOCC3)Cc3nnnn3C(C)(C)CC)cc2c1	-21%
Cc1cccc(OCC(=O)NNC(=O)Nc2cccc(Cl)c2)c1C	?
O=C(NC1CCCc2ccccc21)C1CCN(S(=O)(=O)c2cccc3nonc23)CC1 (stereo unspecified)	-2%
CCOC(=O)CN1C(=O)N[C@@H](c2cccc(C(F)(F)F)c2)[C@H](C(C)=O)[C@H]1C	-6%
